# FGF22 binding = binders of human FGF22 protein, primary screen, FGF22 synaptogenesis inhibitor project, biophysical, thermal shift, single point. 340,000 compounds, 1.5% hits. Fibroblast growth factor 22 (Homo sapiens), Q9HCT0. recombinant FGF22 thermal shift, SYPRO orange fluorescence; percent of sucrose octasulfate shift, DMSO zero. calls only at 9.99 µM;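 active = melting point raised past a set limit in the mean and every replicate; inconclusive = no clear call; three in four hits are not shown here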
# Target sequence (Q9HCT0 whole entry, looked up): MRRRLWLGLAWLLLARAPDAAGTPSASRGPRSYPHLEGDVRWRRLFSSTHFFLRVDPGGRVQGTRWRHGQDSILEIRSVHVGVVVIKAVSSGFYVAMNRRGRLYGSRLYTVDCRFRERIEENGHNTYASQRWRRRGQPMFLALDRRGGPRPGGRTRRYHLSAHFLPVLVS
# Ecoli growth = E. coli growth inhibition, primary screen, OD600 | AID 1053175, 2014 | 330,000 compounds, 0.21% hits | Escherichia coli growth, 23 h; stronger effect = lower value | OD600 absorbance (test concentration not listed);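 active = OD600 absorbance below the run mean of sample wells minus 3.6 SD, in any replicate, cut at about 0.56 in these data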;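 also: stock transfer was 300 nL into about 60 µL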
# rRNA inh HTS = reduced GFP signal of wild-type E. coli, primary screen, bacterial rRNA inhibitor project, GFP/RFP fluorescence, OD600, single point; AID 720706, 2013; E. coli WT GFP vs humanized-ribosome RFP mutants, 24 h; stronger effect = lower value; DMSO median 0, no signal -100; 350,000 compounds, 1.6% hits; GFP signal change (wild-type ribosome), % (concentration not given with the values);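 active = significant combined selectivity score with lowered wild-type GFP, culture density cut under 30%, mutant RFP and density less affected; inactive = any of these conditions unmet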; also: one replicate is shown; some compounds called inactive have numbers as strong as hits
# AF4-AF9 inh = inhibitors of AF4 peptide binding to AF9, primary screen, biochemical, AlphaScreen, biotin-AF4 peptide, FLAG-AF9, single point. 350,000 compounds, 0.47% hits. inhibition, % at 10 µM. AID 651704, 2012. Protein AF-9 (Homo sapiens), P42568;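 active = every replicate reaching a set inhibition limit, whatever the replicate mean, cut at about 25% in these data; inconclusive = mean inhibition reaches that limit but some replicates miss it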;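 also: 0% = plate neutral control median and 100% = total signal loss; the record names both 10 and 1 µM as test concentration; the first replicate is given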
# Vif TR-FRET = inhibitors of Vif binding to APOBEC3G peptide, primary screen, biochemical, TR-FRET, GST-Vif 1-94, biotin-A3G peptide, dose response retest (AID 1117319) | Virion infectivity factor (Human immunodeficiency virus type 1 group M subtype B (isolate … | TR-FRET GST-Vif / biotin-A3G peptide binding; higher % means a stronger effect; test concentration not given here; strong numbers were not always called active | inhibition, %, or IC50 in µM where a hit was titrated | 260,000 compounds, 0.57% hits;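 active = above the screen mean plus three standard deviations and confirmed in dose response; inconclusive = results disagree or hit not tested in dose response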;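 also: Vif residues 1-94 fused to GST binding biotinylated APOBEC3G peptide 110-148; 0% = full assay without inhibitor and 100% = GST in place of GST-Vif; retest series ran down from 100 µM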
# ALR H2O2 inh = inhibitors of human ALR sulfhydryl oxidase, primary screen, biochemical, H2O2 detection, HRP-luminol luminescence, single point; FAD-linked sulfhydryl oxidase ALR (Homo sapiens), P55789; purified ALR, DTT oxidation; inhibition, % (concentration not given with the values); 290,000 compounds, 3.8% hits; AID 485317, 2010;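 active = mean and each replicate at 75% or more; inconclusive = only one of the two met; inactive = neither met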;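 also: stock transfer was 7.5 nL into about 7.5 µL; 0% = neutral wells and 100% = wells with inactivated enzyme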
# Target sequence (P55789 whole entry, looked up): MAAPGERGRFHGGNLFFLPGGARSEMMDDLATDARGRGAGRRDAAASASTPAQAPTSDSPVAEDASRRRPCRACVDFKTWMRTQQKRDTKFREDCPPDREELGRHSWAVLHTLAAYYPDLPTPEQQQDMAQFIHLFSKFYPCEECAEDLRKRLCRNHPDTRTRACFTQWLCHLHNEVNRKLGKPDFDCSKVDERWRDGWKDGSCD
# HNF4A DNA FP = change in binding of human HNF4A to DNA, primary screen, biochemical, fluorescence polarization, FITC-DNA | Hepatocyte nuclear factor 4-alpha (Homo sapiens), P41235 | 1 h | activity change, % at 10 µM | 360,000 compounds, 0.3% hits | AID 1224865, 2016; in the data active = activity change above about 30%, passing the limit was not always enough;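 also: controls were the assay level and a saturating level of protein; the project sought stronger binding though the title names inhibitors; some compounds called inactive have numbers as strong as hits; positive values seem to mean higher polarization but the record does not say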
# Target sequence (P41235 whole entry, looked up): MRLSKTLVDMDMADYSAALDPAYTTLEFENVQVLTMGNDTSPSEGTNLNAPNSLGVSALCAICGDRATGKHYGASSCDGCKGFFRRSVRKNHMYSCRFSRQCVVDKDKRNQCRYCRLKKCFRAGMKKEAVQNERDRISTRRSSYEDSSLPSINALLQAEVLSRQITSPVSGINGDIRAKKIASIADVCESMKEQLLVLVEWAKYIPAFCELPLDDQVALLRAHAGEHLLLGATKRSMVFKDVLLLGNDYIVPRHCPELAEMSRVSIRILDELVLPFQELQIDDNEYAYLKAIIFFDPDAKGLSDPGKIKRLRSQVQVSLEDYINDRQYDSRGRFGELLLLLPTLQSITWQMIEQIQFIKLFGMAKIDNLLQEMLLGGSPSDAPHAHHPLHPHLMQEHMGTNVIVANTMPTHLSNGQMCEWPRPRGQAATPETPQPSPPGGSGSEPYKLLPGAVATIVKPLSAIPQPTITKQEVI
# rRNA inh HTS OD600 = recorded beside rRNA inh HTS, whose call it bears; OD600 change, %; measured here: OD600 growth;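 optical density of the mix in the first replicate; 0 = DMSO median and -100 = no signal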
# rRNA inh HTS RFP = also measured in rRNA inh HTS; calls as there; RFP signal change, %; measured here: RFP humanized mutant strains;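 first replicate; 0 = DMSO median and -100 = no signal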
# * hit, by the source's call; i = inactive; ? = inconclusive; nt = not tested or not shown; & = joins results of further samples. This is a subset, so the mix of outcomes need not match the whole.
SMILES	FGF22 binding	Ecoli growth	rRNA inh HTS	rRNA inh HTS OD600	rRNA inh HTS RFP	AF4-AF9 inh	Vif TR-FRET	ALR H2O2 inh	HNF4A DNA FP
CO[C@H]1CN(C)C(=O)c2cc(NC(=O)Nc3ccccc3)ccc2OC[C@@H](C)N(C(=O)CC2CC2)C[C@@H]1C	i	nt	-1	-5	1.3	0.3	nt	nt	nt
COc1ccc(NC(=O)C2Cc3c(-c4ccc(Cl)cc4)ccnc3O2)cc1OC (centres undefined)	i	nt	0	0	1.7	-0.2	nt	nt	-1.8
Cc1[nH]c2ccccc2c1C(=O)/C=C/c1ccccc1Cl	i	0.64	nt	nt	nt	-3.5	-2%	3	-1.7
CC(C)N1CCc2c(sc(NC(=O)CN3C(=O)c4ccccc4C3=O)c2C(N)=O)C1	i	0.71	10	9	-6.8	0.0	33%	4	-1.9
COC(=O)c1[nH]c2ccc(F)cc2c1NC(=O)C1=COCCO1	nt	0.78	nt	nt	nt	-13	0%&4%	4	-1.5
COc1cc(/C=N/NC(=O)C2=NNC(=O)C2C)ccc1O (centres undefined)	i	nt	6	5	-6.4	-0.5	11%	98*	2.3
CCCn1c(CCC(=O)O)ccc1-c1cccs1	nt	0.74	nt	nt	nt	nt	8%	99*	2.8
COc1ccc2c3c([nH]c2c1)[C@@H](CO)N(C(C)=O)CC31CCN(Cc2ccccc2Cl)CC1	i	nt	-2	-10	4.5	0.9	nt	nt	nt
OC[C@H]1[C@@H]2c3ccccc3NC[C@@H]2N1CC1CCOCC1	i	nt	4	-3	0.1	-4.8	nt	nt	nt
CCNc1ccc([N+](=O)[O-])cc1	i	0.63	10	11	3.2	-1.0	nt	-5	-4.4
CC(C)C[C@H]1COCCS(=O)(=O)N1Cc1cccc(F)c1	i	nt	-14	-23	4.3	-4.8	nt	4	0.2
COc1ccc(NC(=O)CCC(=O)Nc2nnc(C(F)(F)F)s2)c(OC)c1	nt	0.78	nt	nt	nt	nt	0%	-16	-1.1
COc1ccc(-c2cnc3c(c2)C(=O)N([C@H](C)CO)C[C@H](C)[C@@H](CN(C)C(=O)Cc2cccnc2)O3)cc1	i	nt	7	0	-1.4	-2.4	nt	nt	nt
COc1ccc(CN2CCN(CCC(C)C)C(CCO)C2)cc1Cn1cncn1 (centres undefined)	i	0.73	11	8	0.4	1.2	7%	-5	1.1
O=C(O)CCc1nn2c3ccccc3n(CC(=O)c3cccs3)c2nc1=O	i	0.67	14	10	0.4	-0.8	7%	-4	-3.1
CN(C)S(=O)(=O)c1cccc(NC(=O)c2ccc(-n3cncn3)c([N+](=O)[O-])c2)c1	i	0.62	1	7	-2.3	3.3	-4%	-7	-0.2
Cc1ccc(C(=O)COC(=O)c2cc(Cl)nc3ccccc23)cc1	nt	0.69	nt	nt	nt	nt	-2%	-12	-0.3
O=C(NCCc1ccccc1)C1CCCN1C(=O)Nc1ccc(Cl)cc1 (centres undefined)	i	0.69	4	1	2.0	-18	nt	-7	-2.1
COc1ccc(CN2C(=O)c3ccccc3C2(C)c2nc3ccccc3[nH]2)cc1 (centres undefined)	i	nt	9	-3	3.0	-3.9	nt	nt	-0.9
COc1ccc(NC(=O)N[C@@H]2C=C[C@H](CC(=O)NC3CCCCC3)O[C@H]2CO)cc1	i	nt	4	1	0.2	-1.0	nt	nt	nt
CC(=O)c1cccc(NC(=O)C2CCN(S(=O)(=O)c3ccc(F)cc3)CC2)c1	nt	0.71	nt	nt	nt	nt	9%	-14	-0.1
O=C(O)c1ccc2c(c1Nc1ccccc1)C(=O)c1ccccc1C2=O	i	nt	-9	-11	-1.8	9.9	-3%	52	-1.7
c1ccc(SCc2nc(-c3ccncc3)n[nH]2)nc1	nt	0.68	1	6	-0.7	-0.3	-4%	-17	-0.3
CCC(C)(C)NC(=O)C(c1ccc(F)cc1)N(Cc1cccs1)C(=O)c1cnccn1 (centres undefined)	nt	0.69	nt	nt	nt	-0.9	-2%	-4	-0.4
N#CCN1C(=O)C(=O)N(Cc2cccc(Cl)c2)C1=O	i	0.67	3	1	-1.2	-0.8	-5%	-2	1.1
O=C(CCc1ccccc1)Nc1c(F)cccc1F	nt	0.69	nt	nt	nt	nt	-4%	-1	2.6
COc1ccc(S(=O)(=O)N2CCC(C(=O)NCC3CC3)CC2)cc1	i	0.63	3	-1	-0.8	-7.2	nt	-6	1.4
Cc1ccc(N2C(=O)c3ccc(C(=O)O)cc3C2=O)cc1C	nt	0.73	nt	nt	nt	nt	6%	95*	3.1
O=C(NCc1ccc(Cl)cc1)C1CCC(=O)N(C2CC2)C1 (centres undefined)	i	0.68	11	10	-0.4	-5.3	nt	-2	-2.6
COCCn1c(SCC(=O)Nc2ccc(F)cc2F)nc2c(c1=O)SCC2	i	nt	0	-2	-3.7	0.2	-6%	nt	-2.3
C[C@@H]1CN([C@H](C)CO)S(=O)(=O)c2ccc(C#CC(C)(C)O)cc2O[C@@H]1CN(C)C(=O)CN(C)C	i	nt	1	8	0.1	1.2	nt	nt	nt
Cc1ccc(NC(=O)CSc2nsc(SCC(=O)Nc3ccc(C)cc3C)c2C#N)c(C)c1	i	nt	-9	-11	-0.7	-1.1	1%	-18	-0.8
Cc1ccc(-c2nc3ccccc3[nH]2)cn1	i	0.71	6	5	2.9	-14	nt	-6	-0.7
O=C1C2C3CCCC3=C3CCCC3C2C(=O)N1c1cccc(Cl)c1 (centres undefined)	nt	nt	nt	nt	nt	nt	?	4	-2.5
CCC(=O)N1[C@H](C(=O)N2CCCCC2)[C@@H](CO)[C@@H]2Cn3c(ccc(-c4ccccc4)c3=O)[C@@H]21	i	nt	2	3	-2.2	-1.3	nt	nt	nt
COc1cccc(NC(=O)c2sc(NC(=O)c3ccncc3)nc2C)c1	i	0.66	-16	-5	-0.7	2.1	0%	-8	-4.7
COc1ccc(C)cc1S(=O)(=O)N1CCC2(CC1)OCCN2S(=O)(=O)c1ccccc1	i	0.7	4	4	0.2	0.5	4%	-4	1.6
CO[C@@H]1CN(C)C(=O)c2cc(NC(=O)Nc3cccc(F)c3)ccc2OC[C@H](C)NC[C@H]1C	i	nt	0&-4	-4&-8	2.2&-2.5	1.2	nt	nt	nt
CCOC(=O)COc1ccc([N+](=O)[O-])cc1	i	0.66	-3	3	-0.9	-3.3	11%	3	1.5
CCCSc1nc2c(c(=O)[nH]c(=O)n2C)n1Cc1ccccc1	i	0.71	11	14	-1.9	2.8	nt	-12	-0.7
CCN(CC)CCCN1C(=O)C(=O)/C(=C(/O)c2cc(C)ccc2C)C1c1cccnc1 (centres undefined)	nt	0.69	nt	nt	nt	nt	-2%	6	2.7
CCOc1ccc(OCCCC(=O)NNC(=O)c2ccncc2)cc1	nt	0.62	1	15	-1.2	-19	0%	-2	1.6
C[C@H](CO)N1C[C@H](C)[C@@H](CN(C)Cc2ccncc2)Oc2ccc(NC(=O)CCCN(C)C)cc2C1=O	i	nt	5	2	-1.6	-4.2	nt	nt	nt
CCCCNc1cc(F)nc(N)n1	nt	0.68	1	8	-3.1	-11	18%	-18	-5.0
CC(=O)O[C@@H]1[C@H]2[C@@H](C[C@@H](C)[C@@H]3C=CC(=O)[C@@]13C)OC(=O)[C@@H]2C	i	nt	24	22	4.2	5.6	nt	-4	1.6
CCN1CC(CN(C)Cc2cn(-c3ccc(C)cc3)nc2-c2cccc(C)c2)CC1=O (centres undefined)	i	0.67	-31	-31	-2.9	5.1	-4%	nt	-0.8
CSc1nsc(SC)c1C(=O)Nc1ccc(Cl)cc1	i	0.7	15	4	0.4	nt	nt	-1	-3.2
CC1Cc2ccccc2N1S(=O)(=O)c1cccc(C(=O)NCc2ccccn2)c1 (centres undefined)	i	0.66	-17	-33	-5.9	-0.1	nt	2	2.1
COc1cccc(C(=O)NC(=S)N2c3ccccc3CC2C)c1OC (centres undefined)	i	0.73	-15	-13	1.8	8.0	nt	2	0.0
Cc1ccc(C(=O)c2cc([N+](=O)[O-])ccc2N2CCOCC2)cc1C	nt	0.67	nt	nt	nt	nt	-1%	20	-0.8
CC(=O)c1cccc(NC(=O)c2cc(=O)c3ccccc3o2)c1	i	0.67	-5	1	-0.8	-6.3	nt	-17	-0.5
CN(C)C(=O)c1ccc(NC(=O)COc2cccc(Oc3ccccc3)c2)cc1	i	0.74	-27*	-21*	1.6*	19	-1%	-11	3.1
CCOC(=O)c1[nH]c(C)c(C(=O)C(C)C)c1C	nt	0.67	nt	nt	nt	nt	0%	7	3.7
COc1ccc(-c2csc(NC(=O)CSCc3c(C)noc3C)n2)c(OC)c1	i	0.64	-13	-20	4.0	-7.3	5%	0	-0.9
CC1(C)C2CCC1(CS(=O)(=O)N1CCOCC1)C(=O)C2 (centres undefined)	nt	0.65	nt	nt	nt	nt	-4%	-4	1.4
Cc1noc(C)c1CSc1nc2cc(S(=O)(=O)N3CCOCC3)ccc2o1	nt	0.72	nt	nt	nt	nt	2%&6%	nt	-2.4
CC(=O)NC1C(=O)N(CCN2CCOCC2)c2ccc(F)cc21 (centres undefined)	i	0.63	11	6	-1.6	15	1%	-25	3.1
O=C(CCNS(=O)(=O)c1ccccc1F)N1CCN(Cc2ccccc2)CC1	i	0.69	2	4	1.5	-0.7	1%	-2	-0.9
CCOC(=O)N1CCN(c2ccc3nnnn3n2)CC1	nt	0.68	nt	nt	nt	nt	9%	-2	-0.2
CC(C)c1cccc(C(C)C)c1NC(=O)c1ccc(-c2cc(Cl)ccc2Cl)o1	i	nt	3	16	1.5	-17	nt	nt	-0.9

# Next section.
SMILES	FGF22 binding	Ecoli growth	rRNA inh HTS	rRNA inh HTS OD600	rRNA inh HTS RFP	AF4-AF9 inh	Vif TR-FRET	ALR H2O2 inh	HNF4A DNA FP
Cc1ccc(C(=O)NCC(=O)NCC(=O)OCc2ccc(Cl)cc2)cc1	i	0.65	5	13	8.5	-6.5	-7%	nt	-2.5
O=S(=O)(c1ccccc1C(F)(F)F)N1CCN(c2ncnc3sccc23)CC1	i	0.7	nt	nt	nt	-2.4	nt	-17	8.9
COc1ccc(NC(=O)N(C)C[C@H]2OCCCC[C@H](C)Oc3ccc(NS(=O)(=O)c4ccc(F)cc4)cc3C(=O)N([C@@H](C)CO)C[C@@H]2C)cc1	i	nt	-1	-3	3.7	3.5	nt	nt	nt
Cc1ccccc1CN(C)C(=O)c1ccc2ccccc2n1	i	0.7	-4	-11	2.7	-32	13%	3	-2.6
COCCNC(=O)C[C@@H]1C=C[C@@H](NS(=O)(=O)c2ccc(C)cc2)[C@@H](CO)O1	i	nt	2	-2	-2.1	1.2	nt	nt	nt
O=C(OCc1cc(=O)c(OC(=O)c2ccccc2)co1)c1ccccc1	i	0.69	5	-8	-3.8	-0.9	-7%	nt	-0.8
CC1(C(=O)NS(=O)(=O)C2CC2)CCCN(C(=O)C2(c3ccc(Cl)cc3)CCCC2)C1 (centres undefined)	i	nt	5	5	-0.5	-2.5	nt	nt	-0.8
